Assay outcomes (PubChem BioAssay)
T cruzi inh = inhibitors of intracellular T. cruzi growth, primary screen, luminescence, NIH3T3 host cells; hit rate 1.4% among 300,000; T. cruzi beta-gal in NIH3T3, 90 h; inhibition, % (test concentration not listed); AID 1885, 2009;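 active = mean inhibition across valid replicates above about 55%, limit read from the data; inconclusive = mean below that limit but half or more replicates reach it; inactive = mean below it, under half of replicates reach it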;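 also: signal also drops with host cell toxicity which is not excluded here; 0% = plate median of DMSO wells and 100% = zero luminescence signal; higher percent means less beta-gal luminescence so fewer parasites; stock transfer was 50 nL into about 50 µL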
AF4-AF9 inh = inhibitors of AF4 peptide binding to AF9, primary screen, biochemical, AlphaScreen, biotin-AF4 peptide, FLAG-AF9, single point; hit rate 0.47% among 350,000; inhibition, % at 10 µM; Protein AF-9 (Homo sapiens), P42568;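 active = every replicate reaching a set inhibition limit, whatever the replicate mean, cut at about 25% in these data; inconclusive = mean inhibition reaches that limit but some replicates miss it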;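 also: 0% = plate neutral control median and 100% = total signal loss; the record names both 10 and 1 µM as test concentration; the first replicate is given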
Target sequence (P42568 whole entry, looked up): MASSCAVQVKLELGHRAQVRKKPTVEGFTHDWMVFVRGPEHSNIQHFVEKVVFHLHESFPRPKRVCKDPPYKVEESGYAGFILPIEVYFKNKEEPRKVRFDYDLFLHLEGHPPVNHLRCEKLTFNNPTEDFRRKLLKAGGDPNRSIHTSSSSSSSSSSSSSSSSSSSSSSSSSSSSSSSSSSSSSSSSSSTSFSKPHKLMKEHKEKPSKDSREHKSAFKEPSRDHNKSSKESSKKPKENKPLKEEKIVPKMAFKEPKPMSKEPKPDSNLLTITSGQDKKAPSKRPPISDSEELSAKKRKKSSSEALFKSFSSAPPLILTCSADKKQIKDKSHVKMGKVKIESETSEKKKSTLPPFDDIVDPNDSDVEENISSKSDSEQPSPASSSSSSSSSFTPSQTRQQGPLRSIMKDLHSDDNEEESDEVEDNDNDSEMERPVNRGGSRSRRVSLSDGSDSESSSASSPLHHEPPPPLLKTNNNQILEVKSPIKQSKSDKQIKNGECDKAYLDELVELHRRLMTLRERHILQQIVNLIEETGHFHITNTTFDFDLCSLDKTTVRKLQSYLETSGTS
Calb FLC = C. albicans growth inhibition with fluconazole, primary screen, CaCi-2 strain, Alamar Blue fluorescence; C. albicans CaCi-2 (fluconazole-resistant clinical isolate) + fluconazole, 48 h; growth inhibition, % (no concentration beside the values); hit rate 0.57% among 300,000;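 active = most replicates above 75%; inconclusive = exactly half above 75%; inactive = most below 75%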;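 also: all wells also contain fluconazole at 8 µg/ml as a sub-toxic cotreatment; 0% = median of DMSO wells and 100% = median of geldanamycin control wells; wells of about 8 µL received 7.5 nL stock; the first replicate is given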
Beta cell apopt = inhibitors of cytokine-induced beta cell apoptosis, primary screen, luminescence; INS-1E cytokine-induced death, ATP luminescence, 48 h; percent of positive-control rescue, neutral wells zero; protection from apoptosis, % (test concentration not listed); hit rate 0.8% among 300,000;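 active = all replicates at 75% or more, or half of them and the mean; inconclusive = half reach 75% but not the mean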;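 also: 0% = cytokine-treated negative control wells and 100% = positive control rescue; higher means more ATP so stronger rescue from cytokine killing; wells of about 40 µL received 100 nL stock; the first replicate is given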
Bfl-1 A1 inh = caspase 3/7 activation in MEF A1-2A-BIM cells, primary screen, A1 inhibitor project, cell-based, luminescence, HTS; Caspase-Glo 3/7 luminescence, 3 h; percent of clofoctol response, vehicle zero; caspase activation, % (no concentration beside the values); hit rate 0.066% among 330,000; AID 2462, 2010;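 active = over half of replicate activation scores above 10%, or exactly half above 10 with the replicate mean above 10; inconclusive = replicate mean below 10 yet half the replicates above 10; inactive = over half of replicates below 10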;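 also: wells of about 30 µL received 50 nL stock; many hits fall short of the cut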
RanGTP-Imp inh = inhibitors of RanGTP-importin-beta interaction, primary screen, biochemical, FRET, CFP-Ran, YFP-importin-beta, homogeneous; cell-free CFP-Ran/YFP-importin-beta FRET ratio; inhibition, % (no concentration beside the values); hit rate 1.1% among 300,000; AID 2216, 2009;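 active = most replicates above 15%; inconclusive = exactly half above 15%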;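 also: 0% = DMSO wells and 100% = Ran loaded with GDP instead of GTP; wells of about 40 µL received 100 nL stock; the first replicate is given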
LANA-H2A inh = blockers of LANA interaction with H2A/H2B – biochemical, FP readout, HTS, primary screen. inhibition, % (concentration not given with the values). cell-free LANA-H2A/H2B peptide, fluorescence polarization. Protein LANA1 (Human herpesvirus 8 type P (isolate GK18)), Q9QR71. AID 2629, 2010. hit rate 0.6% among 320,000; in the data active = inhibition mostly above about 10%, no sharp cut-off; inactive = mostly below about 6.7%;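 also: stock transfer was 7.5 nL into about 10 µL; 0% = median of vehicle wells and 100% = median of positive control wells; one replicate is shown; the record names a cut of 25% in any replicate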
Vif A3G = inhibitors of Vif binding to APOBEC3G peptide, primary screen, biochemical, TR-FRET, GST-Vif 1-94, biotin-A3G peptide, dose response retest (AID 1117319). Virion infectivity factor (Human immunodeficiency virus type 1 group M subtype B (isolate …. TR-FRET GST-Vif / biotin-A3G peptide binding; higher % means a stronger effect; test concentration not given here; strong numbers were not always called active. inhibition, %; hits with a dose series show IC50 in µM. hit rate 0.57% among 260,000;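 active = above the screen mean plus three standard deviations and confirmed in dose response; inconclusive = results disagree or hit not tested in dose response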;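 also: Vif residues 1-94 fused to GST binding biotinylated APOBEC3G peptide 110-148; 0% = full assay without inhibitor and 100% = GST in place of GST-Vif; retest series ran down from 100 µM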
The depositor's hits bear a star; ? = inconclusive; · = no result given. The order is random; any-hit rate near 4.3%.

SMILES	T cruzi inh	AF4-AF9 inh	Calb FLC	Beta cell apopt	Bfl-1 A1 inh	RanGTP-Imp inh	LANA-H2A inh	Vif A3G
COc1ccc(C(C)NC(=O)c2ccncc2)cc1 (stereo not drawn)	-15	-3.7	3	-6	0.1	-2.1	0.5	·
Cc1c(C)n(CCc2ccccc2)c2ncnc(NCCO)c12	1	0.4	-2	2	0.6	9.5	-3.3	1%
CCOC(=O)c1c(C)[nH]c(C(=O)COC(=O)/C=C/c2ccc(OC(F)F)cc2)c1C	-21	·	0	·	-0.1	-0.5	7.1	9%
CCOc1ccc(NC(=O)N2CCC(c3ccc(C)cc3)C2)cc1 (stereo not drawn)	8	·	-4	-13	0.7	-3.1	4.9	2%
COC(=O)c1ccc(S(=O)(=O)NNC(=O)c2ccc(S(=O)(=O)N3CCCCC3)cc2)cc1	-10	·	-9	4	0.3	-0.5	-2.1	9%
Cc1cc(O)c(/C=N/OCc2ccc(Cl)cc2Cl)c(=O)o1	-20	-0.3	-2	-7	0.4	?	4.8	-3%
COc1cc(-c2nc3c(c(C)nn3-c3ccccc3)c3cc(OC)c(OC)cc23)ccc1O	39	·	1	22	-0.8	-1.3	3.9	-7%
c1ccc(Oc2cccc(OCCCn3cncn3)c2)cc1	1	·	6	-1	0.8	1.3	0.4	?
COC(=O)Cn1c(=O)c2c(nc3n2CC(C)CN3c2ccc(C)c(C)c2)n(C)c1=O (stereo not drawn)	5	3.1	-1	6	0.2	4.3	1.5	·
C=CCn1c(SCC(=O)Nc2ccc(O)cc2)nc2sc(CC)cc2c1=O	4	0.3	-5	0	0.3	-3.2	-2.6	·
O=C(O/N=C(/c1ccccc1)c1ccncc1)c1cccc(F)c1	-3	0.4	6	2	0.3	2.0	-4.3	12%
CCN(C(=O)COC(=O)/C=C/c1ccccc1)C1CCCCC1	6	1.6	2	-4	1.3	6.3	-4.5	-4%
CCOC(=O)c1cnn(-c2ncnc3c2oc2ccccc23)c1N	-11	·	-14	3	1.3	3.1	2.8	0%
COc1ccccc1CC(=O)Nc1ccc2[nH]ncc2c1	0	1.0	-2	-4	-0.3	4.4	-1.6	·
CC(C)CC(C(=O)NC1CCCC1)N(Cc1ccc2c(c1)OCO2)C(=O)c1snc(C(N)=O)c1N (stereo not drawn)	11	0.5	24	-2	1.1	-1.9	-1.3	-13%
O=C(O)CCC(=O)Nc1cc(C(F)(F)F)cc(C(F)(F)F)c1	-11	1.1	4	-10	0.3	3.2	-7.2	-7%
Cc1c(Cl)cccc1NC(=S)NCCc1ccccn1	-27	-1.0	0	-6	0.9	0.4	-0.2	4%
Cc1ccc(CNC(=O)NC23CC4CC(CC(C4)C2)C3)cc1	2	?	-2	5	0.2	-0.6	-1.3	1%
COc1ccccc1NC(=O)CN(c1ccccc1F)S(C)(=O)=O	4	·	13	-1	0.3	-2.7	1.6	3%
CCN(C(=O)CCCC(=O)N(CC)c1ccccc1)c1ccccc1	-9	·	-5	-12	0.7	-0.8	3.3	-2%
CC(NC(=O)[C@H](NC(=O)[C@@H]1Cc2ccccc2CN1)c1ccccc1)c1ccccc1 (stereo partly drawn)	-6	6.4	-3	1	0.5	-1.1	3.5	·
C/C(=C\c1cccc(Cl)c1)C(=O)c1c(C)cc(C)[nH]c1=O	-5	-5.3	2	-3	1.0	-4.4	-2.1	-6%
COc1ccc(-n2c(=S)[nH]c3cc(C(=O)NCc4ccccc4OC)ccc3c2=O)c(OC)c1	6	-1.6	6	-13	0.4	2.4	-2.5	·
CCOC(=O)c1oc2ccccc2c1COC(=O)CNC(=O)c1ccccc1	-2	-2.8	-7	-3	0.6	1.8	-2.9	-11%
CN(CC(=O)N1CCN(Cc2ccccc2)CC1)C(=O)Cc1cccc2ccccc12	·	-2.6	·	-4	-0.1	·	-5.5	-2%

Following part.
SMILES	T cruzi inh	AF4-AF9 inh	Calb FLC	Beta cell apopt	Bfl-1 A1 inh	RanGTP-Imp inh	LANA-H2A inh	Vif A3G
COc1ccc(NC(=O)C(C)SCc2ccccc2)cc1OC (stereo not drawn)	-8	3.1	1	-2	-0.7	3.0	-1.8	·
O=C(O)c1ccc(S(=O)(=O)N(Cc2ccccc2)Cc2ccccc2)cc1	0	-6.6	28	-8	0.3	-3.5	0.2	-1%
CCOc1ccccc1C(=O)NCC(=O)OCC(=O)c1c(N)n(C)c(=O)n(C)c1=O	·	-6.6	·	3	1.4	·	-5.3	·
O=C(O)CCN1C(=O)/C(=C2\C(=O)N(Cc3ccccc3Cl)c3ccccc32)SC1=S	-16	3.2	-1	-9	0.4	1.0	-1.4	2%
COc1cccc(NC(=O)c2ccc(NC(=O)C(C)C)cc2)c1	21	-1.8	-3	4	-5.5	-3.7	-3.3	·
COc1ccc2ccccc2c1C(O)c1nccn1C (stereo not drawn)	-6	·	-21	1	1.0	-0.3	38*	4%
Cc1cccn2c(=O)c3cc(S(=O)(=O)c4ccccc4)c(=N)n(Cc4cccnc4)c3nc12	28	0.9	-29	9	0.0	139*	-1.3	·
COc1cc(C2C3=C(CC(C)(C)CC3=O)N(C)C3=C2C(=O)CC(C)(C)C3)cc(Br)c1O	-5	2.4	6	·	-0.2	?	-3.3	0%
Cc1ccccc1NC(=O)c1cccc(C(=O)Nc2ccccc2C)c1	-9	2.2	0	3	0.1	-0.2	4.0	·
O=C(Cn1cc(Cl)c([N+](=O)[O-])n1)NCCC1=CCCCC1	41	-1.5	9	·	2.0	2.0	0.9	·
C=C(C)C(=O)N1CC2(CC(c3cccc(NC(=O)CC)c3)=NO2)C[C@H]1C(N)=O (stereo partly drawn)	-11	·	-3	-1	0.5	5.9	3.6	2%
CN(C)c1nc(-c2cn(CCC#N)c3ccccc23)cs1	42	13	6	-1	0.4	-4.4	5.4	5%
CCC(C)Nc1nc2c(C)cccn2c(=O)c1C=Nc1ccc(OC)cc1 (stereo not drawn)	·	0.1	9	3	-0.8	-2.4	1.8	0%
Cc1ccc(N2CCN(C(=O)c3ccccc3NC(=O)/C=C\C(=O)O)CC2)cc1	-7	·	11	·	0.4	4.0	-1.4	?
Cc1cc(Cl)ccc1OCC(=O)OCC(=O)NC1CCCC1	·	-8.3	·	-1	-1.6	·	-3.0	9%
CC(=O)Nc1cccc(NC(=O)c2cc3ccccc3o2)c1	3	·	-2	·	-5.2	-0.7	-0.9	-5%
O=C(CSc1nncc2ccccc12)N1CCCCC1	26	-1.5	-1	-8	0.0	-4.7	2.8	0%
CCCC(C(=O)N1CCOCC1)N1C(=O)C2C3C=CC(C3)C2C1=O (stereo not drawn)	-6	0.6	3	-2	-0.3	2.6	-4.8	6%
CCOCCCNC(=O)/C(C#N)=C/c1ccc([N+](=O)[O-])o1	74*	-2.6	2	2	0.7	-1.5	0.7	27%
O=C(Nc1cccc(F)c1)OC(CN1CCCCC1)C(F)(F)F (stereo not drawn)	-6	·	-11	-4	-0.1	1.5	-0.9	-1%
CN(C)C(=O)/C=C\c1cn(-c2ccccc2)nc1-c1ccc2c(c1)OCCO2	29	6.6	45	0	0.8	1.8	-3.8	-7%
O=C(CN1CCCC1)Nc1c(C(=O)C2CC2)oc2ccccc12	-3	9.2	18	-3	1.8	4.2	-0.5	3%
O=C(CSc1nc2[nH]ncc2c(=O)[nH]1)NCc1ccccc1	8	1.9	-4	-1	0.5	1.1	5.2	5%
CC(=NCCN1CCN(C(C)=C2C(=O)c3ccccc3C2=O)CC1)C1=C(O)CC(C)(C)CC1=O	5	2.1	18	3	0.2	1.3	3.5	10%
Cc1cc(/C=C2\SC(=S)NC2=O)cc(C)c1O	-3	-0.3	2	0	-0.9	3.3	-6.2	3%

More results:
SMILES	T cruzi inh	AF4-AF9 inh	Calb FLC	Beta cell apopt	Bfl-1 A1 inh	RanGTP-Imp inh	LANA-H2A inh	Vif A3G
Cc1cc(NC(=O)NC2CCCN2S(=O)(=O)c2ccc(Cl)cc2)no1 (stereo not drawn)	0	·	12	-6	-0.1	1.1	0.8	2%
Cc1cc(C)c(NC(=O)CNC(=O)CNC(=O)C2CCCCC2)c(C)c1	·	-1.9	·	1	0.6	·	-0.9	·
CC(=O)N1N=C(c2ccccc2)CC1c1cccs1 (stereo not drawn)	-8	2.0	-5	-3	0.0	2.6	-1.0	3%
CCCN(CC(=O)Nc1ccccc1C)C(=O)C1CCCN(C(=O)c2ccc(Cl)cc2)C1 (stereo not drawn)	·	5.3	·	-6	1.0	·	5.7	-8%
COc1ccc(-c2noc(CN3C(=O)c4ccccc4C3=O)n2)cc1	-18	·	-17	-5	-0.1	0.4	-3.7	-6%
O=C(COC(=O)c1ccc(F)cc1)Nc1nc2ccc([N+](=O)[O-])cc2s1	-14	-2.1	31	-3	-0.7	-0.1	-4.5	-5%
Cc1cc(NC(=O)CCN2C(=O)/C(=C/c3ccccc3F)SC2=S)no1	-1	-1.9	26	-5	0.3	-1.1	-5.2	·
Cc1noc2ncnc(SCc3ccc(C(F)(F)F)cc3)c12	19	-2.6	2	7	1.9	5.5	-1.9	-5%
c1ccc(Oc2cccc(CN3CCCCC3)c2)cc1	38	·	1	-6	-1.0	?	-1.3	-2%
COc1ccc(N2CC(C(=O)Nc3ccc4c(c3)OCCO4)CC2=O)cc1 (stereo not drawn)	-15	0.4	-5	12	0.1	-0.2	-0.1	·
O=C(O)c1ccc(Nc2cnc3ccccc3n2)cc1	-3	0.8	95*	-6	-15	-0.9	8.8	6%
COc1cc2c(cc1OC)C(c1ccccc1)N(C(=O)c1ccccc1)CC2 (stereo not drawn)	9	9.6	1	·	-0.2	-4.0	0.1	4%
O=C(Nc1ccc2c(c1)OCO2)c1cc(-c2ccccc2Cl)on1	-2	-1.0	-5	-2	-0.5	-4.8	-0.8	-4%
CC1CCCN(C(=O)COc2ccc(-c3ccccc3)cc2)C1 (stereo not drawn)	21	-3.5	32	-2	-3.3	0.0	3.1	·
Cc1ccc(-n2nc(C)c3onc(C)c3c2=O)cc1	6	-8.2	-7	-8	-0.5	-2.3	28*	-9%
CCOC(=O)c1cnc2ccc(Br)cc2c1NCCO	37	7.4	-1	-7	-0.4	0.3	-1.9	27%
Cn1c(=O)c2ccccc2n(CC(=O)NC2CCCC2)c1=O	7	0.5	4	-5	-0.5	6.8	-0.7	·
O=[N+]([O-])c1ccc(N2CCN(c3ccc(O)cc3)CC2)cn1	17	1.9	-9	7	-1.0	1.6	4.5	·
